Screening data: PubChem, National Center for Advancing Translational Sciences (NCATS)
TRPV1 potentiator: enhances activation of the human vanilloid receptor TRPV1. Q8NER1. TRPV1-expressing cells, Fluo-8 calcium influx, capsaicin EC20 potentiation; host cell line not named in the record; control for the full effect not named in the record. potentiation, % at 8.33 µM. 320,000 tested, 0.02% active; active means potentiation above 80%; inconclusive means 30% to 80%; inactive means below 30%; also: 0% is about no effect
Target sequence (Q8NER1 whole entry, looked up): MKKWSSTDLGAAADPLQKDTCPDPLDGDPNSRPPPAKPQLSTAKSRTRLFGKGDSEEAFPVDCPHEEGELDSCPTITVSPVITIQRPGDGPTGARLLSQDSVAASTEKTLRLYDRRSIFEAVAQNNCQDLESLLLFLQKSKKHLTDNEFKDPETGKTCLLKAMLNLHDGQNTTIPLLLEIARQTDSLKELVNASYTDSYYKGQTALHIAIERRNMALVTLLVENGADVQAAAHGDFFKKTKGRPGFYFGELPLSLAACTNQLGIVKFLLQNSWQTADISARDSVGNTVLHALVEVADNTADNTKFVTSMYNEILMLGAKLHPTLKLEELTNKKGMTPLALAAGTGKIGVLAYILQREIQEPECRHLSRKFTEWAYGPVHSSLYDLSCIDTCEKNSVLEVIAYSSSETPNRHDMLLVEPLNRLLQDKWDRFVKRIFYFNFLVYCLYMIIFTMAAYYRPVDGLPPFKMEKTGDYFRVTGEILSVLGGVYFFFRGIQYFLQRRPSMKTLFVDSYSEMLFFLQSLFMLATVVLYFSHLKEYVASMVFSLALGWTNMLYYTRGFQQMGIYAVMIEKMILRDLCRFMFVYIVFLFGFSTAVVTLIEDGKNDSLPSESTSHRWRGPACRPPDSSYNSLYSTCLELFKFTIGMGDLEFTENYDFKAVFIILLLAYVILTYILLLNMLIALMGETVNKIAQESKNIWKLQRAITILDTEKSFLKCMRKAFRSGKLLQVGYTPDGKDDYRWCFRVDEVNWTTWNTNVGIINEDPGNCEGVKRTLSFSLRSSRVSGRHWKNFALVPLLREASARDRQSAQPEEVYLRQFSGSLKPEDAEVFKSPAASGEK
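TRPV1-expressing cells were cultured overnight at 35.5C and loaded with Fluo-8 calcium dye for 40 to 90 min at room temperature. After a 10 s baseline, compound was added and calcium influx was read kinetically for 3 min (ex 480/em 520 nm).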
Menin-MLL FL inh: displaces fluorescein MLL peptide from human menin; Fluorescence polarization, fluorescein-MLL peptide displacement from menin; FP activity change, % at 61.4 µM; 290,000 tested, under 10 active; inconclusive = falling polarisation curve, or a change in total fluorescence; inactive = total fluorescence flat and polarisation flat or rising; no compound was filed as active; the % refers to the polarisation; negative = inhibition;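 also: % of control where 0% means no effect; inhibitors lower the polarisation; unlabelled MLL peptide was the positive control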
PINK1 expr mod: PINK1 expression modulation. AID 624263. 410,000 tested, 0.2% active. Potency, µM (highest dose often 76.6 µM), for the others: at the top dose activation (PINK1 increase), hits mostly activators. PINK1 immunofluorescence, high-content cytometry, 24 h; active = well fitted activation curve with a large enough effect; inconclusive = small, poorly fitted or top-dose-only effect; inactive = flat fitted curve, though single readings scatter; cell line not stated here;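 also: potency is read from the fitted curve at half-maximal effect; % of control where 0% means no effect; nearly all actives have a fitted effect of over 65% in size; a mitochondrial uncoupler was the plate control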
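Cells are seeded, rested 12 hours, then given compound at five concentrations or DMSO for 24 hours. After fixation, blocking and antibody staining, PINK1 amount and mitochondrial localization are scored; CCCP serves as control.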
Sfp PPTase inh: Sfp phosphopantetheinyl transferase inhibition | Biochemical Sfp PPTase activity, qHTS | Potency, µM, inactives show max response, negative = inhibition, hits mostly inhibitors | 310,000 tested, 3.5% active; active = well fitted inhibition curve with a large enough effect; inconclusive = small, poorly fitted or top-dose-only effect, or another doubt; inactive = no such curve, though single readings can be large or run the other way;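 also: the enzyme is Sfp with the accession as filed and its product quenches rhodamine fluorescence; potency is read from the fitted curve at half-maximal effect; 0% = enzyme reaction without inhibitor and -100% = no enzyme wells; top concentration of the series not given in the record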
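After 15 min at room temperature with compound, 15 nM Sfp received 5 uM rhodamine-CoA plus 12.5 uM BHQ-2-ybbR (50 mM Hepes pH 7.6, 10 mM MgCl2). Rate came from the fluorescence difference over 30 min, ex 525/em 598 nm.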
TRPML1 agonist: activates the human TRPML1 channel; Q9GZU1; 410,000 tested, 0.12% active; TRPML1-expressing cells, Ca2+ dye fluorescence, FDSS; host cell line not named in the record; reference of the full effect not given here; activation, % (test concentration not listed); in the data active = activation above about 50%; inconclusive = about 30% to 50%; inactive = below about 30%; also: 0% is about no effect; the text of the record puts the active cut at 80%
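TRPML1-DL cells, Tet-induced overnight (~16 h, 37 degrees C), loaded 45-90 min at room temperature with Ca8 no-wash calcium dye plus quencher. FDSS fluorescence: 10 s baseline, compound pin-transfer, 110 s agonist read, then EC80 54-4 (4uM final) and 110 s antagonist read.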
ClpP mod: qHTS Assay for Activators of ClpP; AID 651965, 2013; purified B. subtilis ClpP, FRET peptide cleavage, 20 min; Potency, µM (highest dose often 57.5 µM), for the others: top-dose activity change, negative = active; 340,000 tested, 1.9% active; ATP-dependent Clp protease proteolytic subunit (Bacillus subtilis (strain 168)), P80244; active = well fitted falling curve with a large enough effect; inconclusive = small, poorly fitted or top-dose-only effect; inactive = no such curve, though single readings can be large or run the other way; also: potency is read from the fitted curve at half-maximal effect; the source files actives as falling curves though it sought activators and does not explain the sign; nearly all actives have a fitted effect of over 65% in size; many hits overshoot -100%
Target sequence (P80244 whole entry, looked up): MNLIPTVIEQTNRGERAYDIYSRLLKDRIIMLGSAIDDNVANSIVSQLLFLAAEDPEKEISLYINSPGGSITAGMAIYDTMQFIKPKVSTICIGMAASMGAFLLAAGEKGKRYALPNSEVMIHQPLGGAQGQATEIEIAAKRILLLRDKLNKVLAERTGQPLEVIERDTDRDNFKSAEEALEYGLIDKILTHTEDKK
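Purified B. subtilis ClpP, 10 microg/mL final in Tris/HCl pH8 with KCl, BSA, glycerol and Tween-20, cleaved an Abz/nitrotyrosine-quenched decapeptide. Fluorescence (ex 320, em 430) was read at 0 and 20 min at room temperature. Delta was normalized to 5.8 microM ADEP and DMSO/no-enzyme controls.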
TRPML1 inh: blocks the human TRPML1 channel; Q9GZU1; TRPML1-inducible cells, Ca2+ dye fluorescence, FDSS; stronger effect = lower value; inhibition of EC80 agonist-evoked calcium signal; activity change, negative = inhibition, % (test concentration not listed); 390,000 tested, 0.02% active; AID 624415; in the data active means activity change below about -50%; inconclusive means about -30% to -50%; inactive means above about -30%;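 also: stimulus is agonist 54-4 at its EC80 concentration; % is scaled to controls: 0 for no effect and ±100 for the full control effect; compound concentration not given in the record; the text of the record puts the active cut at -80%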
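TRPML1-DL cells, Tet-induced overnight (~16 h, 37 °C) at 1,500 cells/well, were loaded with Ca8 no-wash dye plus quencher for 45-90 min at room temperature. Compounds were pinned during FDSS kinetic reading; agonist 54-4 at EC80 (4 uM final) then added.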
* = called active by the depositor; ? = inconclusive; nt = no result given; [ ] = dose if it differs, or a comment. Random draw from the library; 4.4% or so of the library scored in one or more.

SMILES	TRPV1 potentiator	Menin-MLL FL inh	PINK1 expr mod	Sfp PPTase inh	TRPML1 agonist	ClpP mod	TRPML1 inh
CC(C)c1ccc(/C=N/NC(=O)c2ccc(-n3cnnn3)cc2)cc1	-14	nt	5.3%	nt	1.0	nt	10
CCNc1nc(N2CCCCC2)nc(-n2nnc(C(=O)OCC)c2C)n1	11	5.1	2.8%	-10%	1.0	-1.2%	1
Cc1ccc(C(=O)/C=C/C(=O)O)cc1	-2	-0.9	-2.5%	13µM*	0.3	-1.6%	-10
Cc1nn(CC(=O)N2CCCC2)c(=O)c2nn(-c3ccccc3)c(C)c12	13	-3.7	-0.3%	12%	-0.1	-2.5%	14
COc1ccc(/C=N/Nc2nc(N3CCCC3)nc(N3CCCC3)n2)cc1O	-23	2.0	-0.7%	14%	-0.1	-28%	-1
CCOC(=O)c1cc(C(=O)Nc2ccc(C)c(F)c2)nn1C	-12	3.3	6.3%[38.3 µM]	7%	3.2	79%	3
CC1(C2CC2)NC(=O)N(CC(=O)Nc2cc(S(=O)(=O)N3CCCCC3)ccc2Cl)C1=O (stereo not drawn)	9	nt	0.5%	nt	0.0	-0.1%	-17
Cc1cc(Cl)ccc1NC(=S)NCc1cccs1	-15	-1.1	-1.5%	13%	1.4	-0.4%	15
Cn1ccnc1/C(=N\NC(=O)c1ccc(O)cc1)c1cccc([N+](=O)[O-])c1	11	5.8	0.6%	-13%	0.2	-0.2%	13
CCOc1ccc(-c2cnc(NCc3cccc4ccccc34)n2CCOC)cc1	2	0.1	0.6%	56µM*	-0.4	nt	11
CC(=O)c1cccc(NC(=O)c2nc(-c3ccccc3)oc2C)c1	14	-1.1	1.0%	-5%	4.0	nt	1
COC(=O)N1C(=O)[C@@](c2ccccc2)(C2CCCCC2)N1C(=O)OC	-17	0.0	-0.5%	-2%	1.2	-0.1%	0
CCCCOC(=O)CCc1nc2ccccc2[nH]1	-21	1.2	0.0%[38.3 µM]	6%	0.2	0.2%	-20
CC1CCN(S(=O)(=O)c2cn(CC(=O)N3CCN(C)CC3)c(=O)c3ccccc23)CC1	1	-2.3	2.5%	5%	-0.2	-2.6%	3
CCCNC(=O)COc1coc(CN2CCN(c3ccccc3F)CC2)cc1=O	3	-3.4	-0.3%	21%	-0.6	-0.3%	-8
C/C(=N/N=C(\C)c1ccccc1O)c1ccccc1O	-9	?	32µM*	17%	1.8	nt	-24
c1ccc(CNc2ccc3ccccc3n2)nc1	-6	13	2.9%[38.3 µM]	-3%	0.4	28µM*	-8
Cc1ccc(C23CC4CC(CC(CC(=O)N5CCOCC5)(C4)C2)C3)cc1	8	2.9	-2.1%	10%	0.9	-2.8%	70
CCOC(=O)C1CCN(S(=O)(=O)c2ccc(C(C)(C)C)cc2)CC1	8	0.3	2.1%	13%	0.6	nt	-2
Cc1csc(NC(C)c2nc3cc(C(F)(F)F)ccc3n2CCOCCO)n1 (stereo not drawn)	nt	nt	1.4%	nt	-0.9	-0.3%	6
O=C(C[n+]1ccc(C(=O)NCc2ccccc2)cc1)c1ccc(OC(F)F)cc1	4	2.2	1.7%	-16%	0.2	nt	-13
Cc1cccc(-c2ocnc2C(=O)N2CCN(C(=O)c3cccs3)CC2)c1	7	0.9	0.5%	1%	0.0	nt	-14
COc1ccc(C(=O)N(CCc2ccccc2)Cc2ccccc2)c(OC)n1	-11	9.9	5.5%	-4%	4.7	nt	-6
CN(c1nc2ccccc2n2c(C3CC3)nnc12)S(=O)(=O)c1ccccc1	-7	-3.8	6.3%	16%	-0.5	1.6%	-2
Cc1ccc2c(c1)C1CN(C)CCC1N2S(=O)(=O)c1cccc(C(F)(F)F)c1 (stereo not drawn)	4	nt	5.4%	nt	-0.1	3.8%	0
CC(C)(Cc1ccccc1)/[N+]([O-])=C\c1ccc(C(F)(F)F)cc1	-18	nt	2.2%	nt	-1.5	1.1%	-6
O=C(NCCN1CCNC1=O)c1ccc2sc([C@H]3C[C@H](O)[C@@H](CO)O3)nc2c1	nt	nt	-0.5%	nt	0.3	0.2%	3
CCCCOc1cccc(C(=O)N(Cc2cccs2)c2ccc(OC)cc2)c1	nt	nt	4.3%	nt	5.4	1.0%	-3
N#Cc1nc(-c2ccc(F)cc2)oc1NCc1ccccc1	-6	1.3	9.5%	?	0.4	5.0%	-15
CCN(CC)c1ccc(/C=C/c2ccnc3ccccc23)cc1	nt	nt	10%	nt	54*	3.5%	nt
COC(=O)c1cc2n(n1)CCN(Cc1ccccc1Cl)C2=O	17	0.2	1.9%	10%	-0.3	0.6%	-12
COC(=O)c1ccc(-n2nc(C(F)(F)F)c3c2-c2ccoc2CC3)cc1	4	1.5	-3.7%	?	2.0	-18%	8
COc1cc(C2NC(=O)NC(C)=C2C(=O)OCc2ccc(C)cc2)cc(OC)c1OC (stereo not drawn)	1	-1.5	4.3%	7%	0.5	-1.1%	1
COc1cc(C(=O)NCC2(c3ccccc3)CCCC2)ccc1OC(C)C	-16	-0.8	-0.1%	6%	1.0	-0.5%	-14
CC1CCCCC12NC(=O)N(CC(=O)OCC(=O)c1ccc(OC(F)F)cc1OC(F)F)C2=O (stereo not drawn)	5	nt	0.4%	8%	0.1	-1.6%	-8
COc1ccc(CNC(=O)CCS(=O)(=O)c2cc3c4c(c2)CCN4C(=O)CC3)cc1	nt	nt	-0.5%	nt	-0.1	-2.2%	-11
CCCCCCCCN1C(=O)[C@H](CC(=O)NCCC(C)C)C[C@@]2(C(=O)OC)CCCCC=C12	nt	nt	24%	nt	0.6	2.5%	nt
CCOC(=O)CSc1ncc(-c2ccccc2)cn1	2	-0.3	2.2%[38.3 µM]	2%	0.5	-2.5%	11
CC1C2CC(CC1(C)C)N(C(=O)Nc1ccc3nccnc3c1)C2 (stereo not drawn)	2	-1.6	1.2%	14%	-1.2	?	23
N#CC1=C(N)SC(N)=C(C#N)C1Cc1ccccc1	3	?	?	?	5.6	-22%	-1
O=C(O)C1CCCCN1C(=O)c1cc2c(s1)CCCCC2 (stereo not drawn)	21	nt	-1.1%	nt	0.2	0.6%	2
CCN(Cc1nc2ccccc2c(=O)[nH]1)C(=O)C1CC(=O)N(c2cccc3ccccc23)C1 (stereo not drawn)	0	nt	1.1%	nt	-0.1	-2.1%	-6
COc1nc(NCc2ccc(Cl)cc2)nc(OC)n1	-2	0.7	0.2%	1%	-1.2	-1.5%	-3
O=c1cc(CSc2ccccc2)nc(-c2ccncc2)[nH]1	-5	0.8	0.4%	16%	0.1	nt	30
CC(=O)c1c(C)n(-c2ccc(Br)cc2)c2ccc(O)cc12	13	6.1	5.3%	1%	0.4	-1.1%	-11
Cc1ccc(C(=O)COC(=O)c2ccncc2)cc1[N+](=O)[O-]	4	1.4	3.8%	13%	0.9	0.6%	3
Cc1nc(-c2cccnc2)sc1CCNS(=O)(=O)c1ccc(F)cc1	nt	nt	-0.9%	nt	1.8	3.6%	-7
O=C1CS/C(=N/N=C/c2ccccc2)N1c1ccc(O)cc1	?	-0.4	1.1%	10%	0.7	-0.4%	4
O=C(NCc1ccco1)NC1CCCCC1	-3	-0.8	0.3%	10%	0.1	-1.6%	43
CC1CCN(c2nc(-c3ccc(C(C)(C)C)cc3)nc3ccccc23)CC1	nt	nt	0.4%	nt	1.9	?	-9
CC(C)(C)OC(=O)NCc1ccc(NC(=O)c2nc[nH]c2C(=O)N[C@@H](Cc2ccccc2)C(=O)OCc2ccccc2)cc1	3	-0.7	4.2%	12%	0.2	?	24
Nc1nc(NCC(=O)O)nc(N2CCCCCC2)c1[N+](=O)[O-]	-5	5.0	1.1%	20%	-0.8	-2.7%	-16
CCCC(O)(CCN1CCOCC1)c1ccc(Br)cc1 (stereo not drawn)	-14	-1.0	nt	0%	-0.3	-2.3%	-5
CC(C)[C@H](NC(=O)N1CC(=O)Nc2ccccc21)C(=O)N[C@@H](Cc1ccccc1)C(=O)O	6	1.3	0.3%	25%	nt	0.7%	nt
COc1ccc(C(=O)Nc2ccccc2C(=O)NC(Cc2ccc(O)cc2)C(=O)NNC(=O)c2ccccc2)cc1 (stereo not drawn)	-2	8.2	2.2%	?	-1.1	0.3%	-7
S=c1[nH]nc(-c2cccnc2)n1/N=C/C=C/c1ccco1	1	14	-0.3%	16µM*	-0.5	0.8%	-15
O=C(CCN1C(=O)C2C3CCC(C3)C2C1=O)Nc1ccc(Cl)cc1Cl (stereo not drawn)	-5	-0.9	-0.9%	19%	0.3	nt	-8
COc1cccc(OCc2nnc(SCC(=O)OCc3ccccc3)o2)c1	1	0.8	3.9%[38.3 µM]	6%	5.1	-0.6%	8
COc1ccc(-c2cnn3c(N)c(S(=O)(=O)c4ccccc4)cnc23)cc1	-1	-0.2	4.4%	-2%	0.9	-5.9%	-1
Cc1ccc(NS(=O)(=O)c2ccc(Cl)c(C(=O)O)c2)cc1S(=O)(=O)N1CCOCC1	0	-3.7	0.9%	11%	0.7	-3.4%	-5
Following part.
SMILES	TRPV1 potentiator	Menin-MLL FL inh	PINK1 expr mod	Sfp PPTase inh	TRPML1 agonist	ClpP mod	TRPML1 inh
O=C(Oc1c(Cl)cc(Cl)c2cccnc12)c1cccc([N+](=O)[O-])c1	4	-5.3	1.6%	6%	0.1	1.7%	38
CC(=O)NS(=O)(=O)c1ccc(N2C(=O)CC(Sc3nccc(C)n3)C2=O)cc1 (stereo not drawn)	-4	-2.5	0.3%	6%	0.0	0.2%	12
CCOc1cc(N2CCOCC2)c(OCC)cc1NC(=S)NCCCOC	3	0.8	1.0%	-27%	0.8	nt	0
O=C(C=Cc1ccco1)N1CCOCC1	nt	nt	-2.9%	nt	1.1	nt	-14
COc1ccc(CCNC(=O)COC(=O)Cc2ccccc2[N+](=O)[O-])cc1	nt	nt	-2.3%	nt	0.3	-3.5%	0
COc1ccc(CCNS(=O)(=O)CC23CCC(CC2=O)C3(C)C)cc1OC (stereo not drawn)	14	0.9	0.8%	15%	nt	0.2%	nt
Cc1ccc(C)c(N2CCN(C(=O)Cn3c(=O)oc4cc(S(=O)(=O)N5CCCC5)ccc43)CC2)c1	-8	-2.2	4.5%	-1%	0.1	0.0%	-15
